# Bioassay records from PubChem.
# Sfp inh: Sfp phosphopantetheinyl transferase inhibition. Q9F4F7. Biochemical Sfp PPTase activity, qHTS. 310,000 compounds, 3.5% hits. Potency, µM, without a hit: max response, negative = inhibition, actives largely listed as inhibitors; active = well fitted inhibition curve with a large enough effect; inconclusive = small, poorly fitted or top-dose-only effect, or another doubt; inactive = no such curve, though single readings can be large or run the other way;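 note: the enzyme is Sfp with the accession as filed and its product quenches rhodamine fluorescence; potency is the fitted concentration of half-maximal effect; 0% = enzyme reaction without inhibitor and -100% = no enzyme wells; top concentration of the series not given in the record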
#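 Fluorescence-quenching assay: 15 nM Sfp-PPTase preincubated 15 min at room temperature with compound, then 5 uM rhodamine-CoA and 12.5 uM BHQ-2-labelled YbbR peptide added. Fluorescence (ex 525/em 598 nm) read at start and after 30 min; difference gives rate.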
# Menin MLL FP FL: menin-MLL binding inhibition, fluorescein peptide; Fluorescence polarization, fluorescein-MLL peptide displacement from menin; FP activity change, % at 61.4 µM; 290,000 tested, under 10 active; AID 1766; inconclusive = falling polarisation curve, or a change in total fluorescence; inactive = total fluorescence flat and polarisation flat or rising; no compound was filed as active; the % refers to the polarisation; negative = inhibition;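 note: % of control where 0% means no effect; inhibitors lower the polarisation; unlabelled MLL peptide was the positive control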
# PINK1 expr mod: PINK1 expression modulation. PINK1 immunofluorescence, high-content cytometry, 24 h. Potency, µM (titrated, usually from 76.6 µM), for inactives: at the top dose activation (PINK1 increase), most hits filed as activators. 410,000 compounds, 0.2% hits; active = well fitted activation curve with a large enough effect; inconclusive = small, poorly fitted or top-dose-only effect; inactive = flat fitted curve, though single readings scatter; cell line not stated here;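 note: potency is the fitted concentration of half-maximal effect; % of control where 0% means no effect; nearly all actives have a fitted effect of over 65% in size; a mitochondrial uncoupler was the plate control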
#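 Stable cell line, 250 cells/well, 12 h attachment; compounds pinned at 5 concentrations, 24 h; CCCP control. Fixed with nuclear dye, primary antibodies 12 h at 10 degrees C, secondary plus cell stain; laser-scanning cytometer read.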
# ClpP mod: qHTS Assay for Activators of ClpP | purified B. subtilis ClpP, FRET peptide cleavage, 20 min | Potency, µM (top dose mostly 57.5 µM), without a hit: at the highest dose activity change, negative = active | 340,000 compounds, 1.9% hits | AID 651965, 2013; active = well fitted falling curve with a large enough effect; inconclusive = small, poorly fitted or top-dose-only effect; inactive = no such curve, though single readings can be large or run the other way; note: potency is the fitted concentration of half-maximal effect; the source files actives as falling curves though it sought activators and does not explain the sign; nearly all actives have a fitted effect of over 65% in size; many hits overshoot -100%
# Target sequence (P80244 whole entry, looked up): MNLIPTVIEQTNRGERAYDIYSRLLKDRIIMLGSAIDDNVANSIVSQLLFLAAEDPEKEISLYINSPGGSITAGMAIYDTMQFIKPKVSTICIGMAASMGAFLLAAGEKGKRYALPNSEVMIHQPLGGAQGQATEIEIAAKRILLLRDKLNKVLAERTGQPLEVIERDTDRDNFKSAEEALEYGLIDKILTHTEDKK
#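 Buffer: 100 mM Tris/HCl pH8, 100 mM KCl, 0.05% low protease BSA, 2.5% glycerol, 0.01% Tween-20. ClpP 10 microg/mL final; 20 min RT; delta FRET normalized to ADEP and DMSO controls.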
# TRPV1 potentiator: human TRPV1 potentiation. potentiation, % at 8.33 µM. AID 540277. 320,000 compounds, 0.02% hits. TRPV1-expressing cells, Fluo-8 calcium influx, capsaicin EC20 potentiation; host cell line not named in the record; control for the full effect not named in the record; active means potentiation above 80%; inconclusive means 30% to 80%; inactive means below 30%; note: 0% is about no effect
#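 Cells expressing TRPV1 were dye-loaded with Fluo-8 and read kinetically: 10 s baseline, 3 min after compound (agonist portion), then 2 min after EC20 capsaicin (allosteric enhancer portion). Calcium-bound dye fluorescence at 480/520 nm.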
# TRPML1 blocker: inhibitors of human TRPML1 channel; Q9GZU1; TRPML1-inducible cells, Ca2+ dye fluorescence, FDSS; active compounds read low; inhibition of EC80 agonist-evoked calcium signal; activity change, negative = inhibition, % (no concentration beside the values); 390,000 compounds, 0.02% hits; in the data active means activity change below about -50%; inconclusive means about -30% to -50%; inactive means above about -30%;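 note: stimulus is agonist 54-4 at its EC80 concentration; % is set by controls: 0 for no effect and ±100 for the full control effect; compound concentration not given in the record; the text of the record puts the active cut at -80%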
# Target sequence (Q9GZU1 whole entry, looked up): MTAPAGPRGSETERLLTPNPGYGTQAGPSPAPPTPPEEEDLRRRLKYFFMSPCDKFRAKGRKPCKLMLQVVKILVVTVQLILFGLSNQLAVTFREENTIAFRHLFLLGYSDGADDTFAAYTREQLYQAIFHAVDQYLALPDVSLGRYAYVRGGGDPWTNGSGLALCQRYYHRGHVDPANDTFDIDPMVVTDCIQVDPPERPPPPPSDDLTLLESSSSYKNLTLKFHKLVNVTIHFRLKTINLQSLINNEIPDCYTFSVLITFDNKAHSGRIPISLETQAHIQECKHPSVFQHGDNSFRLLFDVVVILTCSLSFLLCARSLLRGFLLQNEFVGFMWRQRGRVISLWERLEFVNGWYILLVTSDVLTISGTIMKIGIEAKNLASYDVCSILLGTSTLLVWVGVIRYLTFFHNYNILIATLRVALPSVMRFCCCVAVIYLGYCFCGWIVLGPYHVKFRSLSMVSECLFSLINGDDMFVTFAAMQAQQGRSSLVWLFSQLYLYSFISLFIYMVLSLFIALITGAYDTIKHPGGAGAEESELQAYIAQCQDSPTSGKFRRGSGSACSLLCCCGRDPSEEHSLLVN
#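 Tet-induced TRPML1-DL cells loaded with Ca8 no-wash calcium dye were read kinetically on FDSS. Compound addition was followed by EC80 agonist 54-4 (4 uM final); inhibition was read over 110 s.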
# TRPML1 agonist: human mucolipin-1 channel agonism. Q9GZU1. TRPML1-expressing cells, Ca2+ dye fluorescence, FDSS; host cell line not named in the record; reference of the full effect not given here. activation, % (concentration not given with the values). 410,000 compounds, 0.12% hits; in the data active = activation above about 50%; inconclusive = about 30% to 50%; inactive = below about 30%; note: 0% is about no effect; the text of the record puts the active cut at 80%
#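 TRPML1-DL cells, Tet-induced overnight (~16 h, 37 degrees C), loaded 45-90 min at room temperature with Ca8 no-wash calcium dye plus quencher. FDSS fluorescence: 10 s baseline, compound pin-transfer, 110 s agonist read, then EC80 54-4 (4uM final) and 110 s antagonist read.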
# Starred values were filed as active, the others as inactive; ? = inconclusive; . = no result given; & = joins results of further samples; [ ] = dose if it differs, or a comment.
SMILES,Sfp inh,Menin MLL FP FL,PINK1 expr mod,ClpP mod,TRPV1 potentiator,TRPML1 blocker,TRPML1 agonist
Cc1ccc(C2=NN(S(C)(=O)=O)C(c3ccc4c(c3)OCO4)C2)cc1 (configuration not stated),2%,13,26%,1.7%,7,13,6.7
CC(Oc1ccc([N+](=O)[O-])cc1Cl)C(=O)Nc1ccc(C(N)=O)cc1 (configuration not stated),-5%,0.7,0.4%,.,7,-2,-0.2
CCCCCCn1c(=O)n2n(c1=O)C[C@]1(OC(=O)NCC3CCCCC3)CN(S(=O)(=O)c3ccc(C)cc3)C[C@]1(O)C2,.,.,7.2%,-0.6%,.,12,1.0
Cn1cccc1C(=O)NNC(=O)COc1ccc(Br)cc1,.,.,18%,.,-4,10,0.0
CC(OC(=O)C(NC(=O)c1ccco1)C(C)C)C(=O)Nc1ncc(Cl)cc1Cl (configuration not stated),18%,2.5,-1.1%,0.5%,-3,-17,-0.3
CN(C)CCCOC(=O)c1ccc(Cl)cc1,-7%,1.9,-0.2%,-0.8%,-2,-3,-0.4
O=C(CN1c2cccc3cccc(c23)S1(=O)=O)N1CCCCC1,.,.,4.2%,-24%,.,10,-0.7
C/C(N)=C(/C#N)C(=O)COC(=O)CSc1ccc2ccccc2c1,0%,-0.8,4.3%[38.3 µM],2.4%,-9,2,0.0
Cc1ccccc1C(=O)Nc1c(C)nc2ccccn2c1=O,.,.,-0.8%,-25%,.,5,0.6
CCOc1ccc(C(=O)c2ccc([N+](=O)[O-])cc2Cl)cc1,-16%,-4.9,-0.6%,.,-10,44,3.7
COc1ccccc1NS(=O)(=O)c1cc(NC(=O)CN2C(=O)NC3(CCCCC3)C2=O)ccc1C,.,.,-0.6%,0.6%,.,-7,-0.2
O=C(NCC1CCCO1)C(c1ccc(F)cc1)N(CC1CCCO1)C(=O)c1ccc(-c2ccccc2)[nH]1 (configuration not stated),-15%,0.3,-0.1%,-4.5%,-17,1,0.6
Nc1cc(C(=O)OCC(=O)NCC2CCCO2)ccc1Cl (configuration not stated),12%,-0.8,-1.1%,-22%,8,3,0.0
Cc1cccc(N(C)C(=O)COc2cc(=O)n(C)c3ccccc23)c1,-10%,2.4,0.2%,-4.4%,-18,-4,0.2
CN(Cc1c(C(=O)N/N=C/c2ccccc2)nnn1-c1nonc1N)C1CCCCC1,12%,2.4,3.5%,1.2%,-8,-6,0.2
CCC(C)C(NC)C(=O)O (configuration not stated),12%,3.2,0.5%,.,.,.,.
N#Cc1ccsc1NC(=O)CN1C(=O)NC2(CCCCC2)C1=O,.,.,0.0%,-5.0%,.,6,0.7
CCOc1ccc(Br)cc1S(=O)(=O)NC(=O)c1ccccc1,29%,0.4,0.1%,4.0%,6,24,-0.3
CCS(=O)(=O)N1N=C(c2ccc(C)cc2)CC1c1cc2ccc(OC)cc2nc1Cl (configuration not stated),.,.,12%,-17%,.,28,1.6
Cc1nc(C(F)(F)F)ccc1C(=O)N1CCC(C)(C(=O)O)C1 (configuration not stated),.,.,2.6%,-0.9%,.,.,-0.4

# Another view of 3 compounds above.
SMILES: CN(C)CCCOC(=O)c1ccc(Cl)cc1
  Sfp inh: -7%	Menin MLL FP FL: 1.9	PINK1 expr mod: -0.2%	ClpP mod: -0.8%	TRPV1 potentiator: -2	TRPML1 blocker: -3	TRPML1 agonist: -0.4

SMILES: O=C(CN1c2cccc3cccc(c23)S1(=O)=O)N1CCCCC1
  Sfp inh: .	Menin MLL FP FL: .	PINK1 expr mod: 4.2%	ClpP mod: -24%	TRPV1 potentiator: .	TRPML1 blocker: 10	TRPML1 agonist: -0.7

SMILES: C/C(N)=C(/C#N)C(=O)COC(=O)CSc1ccc2ccccc2c1
  Sfp inh: 0%	Menin MLL FP FL: -0.8	PINK1 expr mod: 4.3%[38.3 µM]	ClpP mod: 2.4%	TRPV1 potentiator: -9	TRPML1 blocker: 2	TRPML1 agonist: 0.0

# Following part:
SMILES,Sfp inh,Menin MLL FP FL,PINK1 expr mod,ClpP mod,TRPV1 potentiator,TRPML1 blocker,TRPML1 agonist
CCC(=O)c1ccc(OCc2ccc(C(=O)OC)cc2)c(OC)c1,-3%,-0.7,5.3%,-5.4%,9,13,1.6
FC(F)(F)c1ccccc1Cc1c(-c2ccco2)nc2ccc(Cl)cn12,.,.,0.3%,?,.,.,-0.5
CC(C)c1ccc(NC(=S)NN(c2ccccc2)c2ccccc2)cc1,-12%,12,12%,-3.6%,20,17,1.4
COC(=O)CC1=NN(c2nc(C)cc(C)n2)C(=O)C1,50µM*,-8.6,0.1%,0.8%,20,16,0.4
CC1(C)CC(=O)C(C(N)=NC(=O)c2ccccc2)=C(O)C1,23%,3.2,5.5%,.,-6,-14,1.1
COc1cccc(OC)c1C(=O)Nc1ccccc1C(=O)N1CCOCC1,6%,1.1,0.4%[38.3 µM],1.0%,1,82,-0.6
Cc1cc(C)cc(N(CC(=O)NCC2CCCO2)C(=O)CCC(=O)Nc2nccs2)c1 (configuration not stated),23%,.,-2.2%,.,6,-2,1.3
CC1=NN(C(=O)Cc2ccc([N+](=O)[O-])cc2)C(O)(C(F)(F)C(F)(F)F)C1 (configuration not stated),14%,0.7,2.5%,2.0%,28,-5,0.4
CCC(C)[C@H]1CNCCN1CCc1cc(C(F)(F)F)cc(C(F)(F)F)c1 (some centres not stated),.,.,-0.5%,-1.0%,?,-6,0.2
CCN=C(NCC)SC1CC(=O)N(c2ccc(F)cc2)C1=O (configuration not stated),19%,2.0,0.4%,0.1%,-16,11,0.3
CCCCn1nnnc1SCC(=O)Nc1ccc2c(c1)OCO2,5%,4.6,-0.7%,1.0%,0,36,2.5
CC(=O)Nc1ccc(C(=O)CCl)cc1,.,.,0.3%,3.4%,3,0,0.9
O=C(CSc1nc(=O)n(Cc2ccco2)c2c1CCC2)Nc1cccc(F)c1,.,.,-0.4%,-6.0%,.,-21,0.2
COc1ccc(S(=O)(=O)NCc2ccccc2Cl)cc1OC,13%,1.4,-1.8%,-1.4%,0,4,-1.7
Cc1cc(C)c[n+](C(C)C(=O)c2ccc(Cl)cc2)c1 (configuration not stated),3%,-3.8,0.2%,-0.8%,-1,-1,0.6
COCCNC(=O)CCc1c(C)nc2c(c(C)nn2-c2ccc(C)cc2)c1C,4%,-6.1,0.3%&-0.2%,4.0%&4.2%,7,-12&11,0.7&0.1
CCOC(=O)c1ccc(NC(=O)CN2C(=O)C(C)SC(C)C2=O)cc1 (configuration not stated),12%,-2.7,0.3%,2.4%,6,2,-0.8
Cc1ccc(C(=O)NC(=S)NNC(=O)c2ccccc2[N+](=O)[O-])cc1,45µM*,0.8,-1.8%,-2.8%,-2,-1,-0.7
CC(C)C(=O)N1CCN(c2nc(-c3ccccc3)c3c(c2C#N)CCCC3)CC1,-22%,0.2,-6.7%[38.3 µM],28µM*,-8,50,2.9
CC1CCc2nc3ccc(S(=O)(=O)N4CCC(C(=O)O)CC4)cc3c(C(=O)O)c2C1 (configuration not stated),8%,0.2,3.8%,1.5%,5,-2,-0.3
O=C1C2C3C=CC(CC3)C2C(=O)N1/N=C/c1c[nH]c2ccccc12 (configuration not stated),10%,-8.9,1.7%,.,4,10,-0.3
COc1ccc(CNc2ncnc3ccc(-c4ccc(N(C)C)cc4)cc23)c(OC)c1,?,-1.1,?,.,.,.,.
COc1ccc(NC(=O)CC(C)NCCCN2CCCC2=O)cc1 (configuration not stated),?,-14,1.1%,0.7%,-13,.,.
CCOc1ccc(OCC(=O)OCn2c(SC)nnc(C)c2=O)cc1,8%,-2.0,2.1%,-2.6%,?,11,2.2
Cc1cccc(CN2C(=O)CSc3ccc(C(=O)NC4CC4)cc32)c1,13%,5.3,1.8%,.,-24,2,-0.4
Cc1cc(NS(=O)(=O)c2ccc(NC(=O)C(C)Oc3ccc(C(C)C)cc3)cc2)no1 (configuration not stated),15%,-2.2,-1.0%,.,-10,24,5.1
CCC1CCCCN1CCCNC(=O)c1sc2nc(C)cc(C)c2c1-n1cccc1 (configuration not stated),.,.,-0.7%,-1.9%,.,-15,0.3
CS(=O)(=O)/C(C#N)=C/c1cccn1S(=O)(=O)c1ccccc1,6%,-15,0.0%,0.7%,6,17,-0.5
CC1CCC(C(C)C)C(OCC(O)CNC(C)C)C1 (configuration not stated),10%,1.0,0.5%,-0.1%,0,.,.
COc1ccc(Cl)cc1Nc1cc(C)nc2nc(C)nn12,-4%,7.8,2.6%,-3.1%,-14,-5,1.6
O=C(/C=C\c1ccco1)Nc1ccc(N2CCN(C(=O)c3ccccc3)CC2)cc1,0%,4.5,1.6%,1.0%,0,-2,-0.1
O=C(COc1cccc2ccccc12)N/N=C/c1ccc(Sc2nc3ccccc3s2)o1,-1%,4.8,3.0%,-6.5%,?,12,0.1
O=C(N/C(=C/c1ccc(F)cc1)C(=O)N1CCCC1)c1ccccc1,11%,-6.1,-1.1%,.,3,28,0.7
COc1ccccc1CCCNC(=O)C1CCC(=O)N(Cc2ccccc2F)C1 (configuration not stated),14%,-0.7,0.2%,-1.1%,-14,-2,0.2
Cc1cc(NC(=O)CSc2n[nH]c(-c3ccccc3Br)n2)no1,.,.,-1.4%,.,.,-2,2.5
Cc1cc(/C=C2\Sc3ccccc3N2C)cc(C)[n+]1CC1CCCO1 (configuration not stated),4%,?,?,.,8,-24,20
CCOc1ccc(C(=O)N2CCN(c3cnn(-c4ccccc4)c(=O)c3Cl)CC2)cc1,13%,-4.0,1.7%,.,-2,3,-0.4
CN(C)c1ccc(C(CNS(=O)(=O)c2ccc(Cl)cc2)N2CCOCC2)cc1 (configuration not stated),.,.,-2.0%,-1.3%,.,37,-1.0
CCN(CC)C(=O)c1cccc(-c2csc(C(O)c3ccc(F)c(OC)c3)n2)c1 (configuration not stated),.,.,0.9%,-0.4%,.,.,-0.6
CN1/C(=C\C=Nc2ccc3ccccc3c2)C(C)(C)c2ccccc21,-12%,?,.,.,-18,.,.
Cc1cccc(N2CCN(C(=O)C3CCN(S(=O)(=O)N4CCOCC4)CC3)CC2C)c1 (configuration not stated),5%,0.8,0.2%,0.6%,-13,1,-0.2
Cc1cccc(C)c1NC(=O)CNC(=O)C1CCCC1,.,.,-0.9%,0.8%,2,-10,0.4
CCOC(=O)C1=C(C)OC(N)=C(C#N)C1c1ccc(C)s1 (configuration not stated),-16%,-2.5,0.8%,.,-17,2,-0.2
CS(=O)(=O)Oc1ccc(/C=C2\C(=N)N3N=C(CC(=O)N4CCOCC4)SC3=NC2=O)cc1Cl,17%,21,1.9%,0.2%,25,49,3.9
